Myc binder – binders of human c-Myc, primary screen, biochemical, small molecule microarray, anti-His fluorescence; calls only; His-c-Myc binding; 17,000 tested, 1.5% active; Myc proto-oncogene protein (Homo sapiens), P01106;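 active means spot fluorescence over background with P-value below 7% in all four replicate spots, showing protein binding; compounds were printed on slides so no solution concentration is given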;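 further: score is binary with 100 for all four spots passing and 0 otherwise; about 2 pmol printed per array spot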
STAT3 SMM – STAT3 binders, primary screen, biochemical, small molecule microarray, single point, set 2. Signal transducer and activator of transcription 3 (Homo sapiens), P40763. 17,000 tested, 0.2% active. His-STAT3 binding, anti-His fluorescence. AID 624138, 2012. calls only;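 active means compounds whose four printed spots each show fluorescence over background unusually high for their array block, chance value under 7%; compounds were printed on slides so no solution concentration is given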;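 further: about 2 pmol printed per array spot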
Target sequence (P40763 whole entry, looked up): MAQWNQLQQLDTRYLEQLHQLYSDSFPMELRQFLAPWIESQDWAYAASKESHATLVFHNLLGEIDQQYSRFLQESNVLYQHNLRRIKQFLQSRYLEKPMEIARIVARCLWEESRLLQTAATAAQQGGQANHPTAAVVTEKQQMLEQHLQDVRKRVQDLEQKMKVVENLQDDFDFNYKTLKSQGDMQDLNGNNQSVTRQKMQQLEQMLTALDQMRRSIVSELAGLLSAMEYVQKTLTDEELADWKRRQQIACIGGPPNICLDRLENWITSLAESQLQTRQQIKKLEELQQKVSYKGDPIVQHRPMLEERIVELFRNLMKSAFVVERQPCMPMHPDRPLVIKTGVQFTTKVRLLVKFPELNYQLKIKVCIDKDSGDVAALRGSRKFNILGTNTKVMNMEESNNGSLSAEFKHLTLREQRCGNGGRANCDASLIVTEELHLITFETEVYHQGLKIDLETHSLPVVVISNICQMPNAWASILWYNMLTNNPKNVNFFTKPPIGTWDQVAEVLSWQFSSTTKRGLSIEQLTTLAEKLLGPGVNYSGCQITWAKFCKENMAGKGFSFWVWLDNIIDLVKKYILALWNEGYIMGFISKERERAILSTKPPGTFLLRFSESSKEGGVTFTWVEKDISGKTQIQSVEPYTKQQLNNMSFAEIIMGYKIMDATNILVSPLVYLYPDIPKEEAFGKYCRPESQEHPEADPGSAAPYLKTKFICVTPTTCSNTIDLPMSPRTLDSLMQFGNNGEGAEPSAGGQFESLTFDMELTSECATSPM
mut p53 SMM – binders of human mutant p53, primary screen, biochemical, small molecule microarray, anti-GST fluorescence | mutant tumor protein p53 (GST-tagged), Homo sapiens | small molecule microarray binding | calls only | 17,000 tested, 0.4% active | AID 624136, 2012;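 active means compounds whose four printed spots each glow above background more than chance allows, each with a p-value under 7%; compounds were printed on slides so no solution concentration is given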;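 further: about 2 pmol printed per array spot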
ID4 binder – binders of human ID4 protein, primary screen, biochemical, small molecule microarray, single point; AID 624137, 2012; 31,000 tested, 1.2% active; calls only; Flag-ID4 binding, fluorescence F/B; DNA-binding protein inhibitor ID-4 (Homo sapiens), P47928;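 active means spot signal over background at p below 0.07 in all four prints; compounds were printed on slides so no solution concentration is given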;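 further: a binder raises fluorescence above local background on the spot; about 2 pmol printed per array spot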
Target sequence (P47928 whole entry, looked up): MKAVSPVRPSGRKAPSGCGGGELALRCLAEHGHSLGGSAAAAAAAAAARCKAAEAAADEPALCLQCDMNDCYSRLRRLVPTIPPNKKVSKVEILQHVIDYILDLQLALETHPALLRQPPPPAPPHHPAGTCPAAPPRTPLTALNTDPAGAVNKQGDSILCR
Calls only; i = inactive; . = no result given; + = active, no number. The list is partial; count on the stated rates, not on these rows.

item	canonical_smiles	Myc binder	STAT3 SMM	mut p53 SMM	ID4 binder
1	C[C@@H]1CN([C@H](C)CO)C(=O)c2cc(NC(=O)Nc3ccc(F)cc3)ccc2O[C@@H](C)CCCCO[C@H]1CN(C)Cc1ccc(C(=O)O)cc1	i	i	i	i
2	Cn1nc(-c2ccc(NCCN3CCOCC3)c([N+](=O)[O-])c2)c2ccccc2c1=O	i	i	i	i
3	COc1cc2oc(-c3ccccc3)cc(=O)c2c(O)c1OC	i	i	i	i
4	O=C(NCc1ccco1)c1cnn2c(C(F)F)cc(C3CC3)nc12	i	i	i	i
5	O=C(COc1ccc(Cl)cc1)Nc1ccc(O)c(-c2nc3ccccc3o2)c1	i	i	i	i
6	C[C@H](CO)N1C[C@H](C)[C@H](CN(C)S(=O)(=O)c2cccs2)Oc2ccc(NC(=O)NC3CCCCC3)cc2CC1=O	i	i	i	i
7	C[C@H]1CN([C@@H](C)CO)C(=O)c2cccc(NS(=O)(=O)c3ccccc3)c2O[C@@H]1CN(C)C(=O)Nc1ccc(C(F)(F)F)cc1	i	i	i	i
8	COC(=O)c1c(C)n(CCNc2ccc([N+](=O)[O-])cc2)c2ccc(O)cc12	i	i	i	i
9	C[C@H](CO)N1C[C@H](C)[C@H](CN(C)Cc2ccc(Cl)c(Cl)c2)Oc2ccc(NC(=O)c3ccncc3)cc2CC1=O	i	i	i	i
10	OCC1OC(n2cnc3c(NC4CCCC4)ncnc32)C(O)C1O (stereo not drawn)	i	i	i	i
11	C[C@@H]1CCCCO[C@@H](CN(C)C(=O)Nc2ccccc2)[C@H](C)CN([C@H](C)CO)C(=O)c2cc(NC(=O)Nc3ccccc3)ccc2O1	i	i	i	+
12	CC(=O)Nc1cccc(-c2nnc(SCC(=O)Nc3cccc(Cl)c3)n2C)c1	i	i	i	i
13	CC(=O)Oc1ccccc1C(=O)OCO/N=[N+](\[O-])N1CCCC1	i	i	i	.
14	Cc1noc(C)c1NC(=O)N(C)C[C@H]1Oc2ccc(NC(=O)c3ccncc3)cc2CC(=O)N([C@@H](C)CO)C[C@H]1C	i	i	i	i
15	C[C@@H]1CN([C@H](C)CO)C(=O)c2cc(NS(=O)(=O)c3ccccc3)ccc2O[C@@H](C)CCCCO[C@@H]1CN(C)C(=O)c1ccncc1	i	i	i	+
16	COc1ccc(C)cc1S(=O)(=O)N(C)CC(=O)N1CCCC1	i	i	i	i
17	O=C1O[C@H](c2ccccc2)[C@H](c2ccccc2)N2[C@H]1[C@@H](C(=O)O)[C@]1(C(=O)Nc3ccc(C#CC4=CCCCC4)cc31)[C@H]2c1ccc(O)cc1	i	i	i	i
18	C[C@@H]1CCCCO[C@@H](CN(C)Cc2ccc3c(c2)OCO3)[C@H](C)CN([C@H](C)CO)C(=O)c2cc(NS(=O)(=O)c3ccccc3)ccc2O1	i	i	i	i
19	Cc1ccc(OCC(=O)Nc2cc3nn(-c4ccc(C)cc4)nc3cc2C)cc1	i	i	i	i
20	C[C@H](CO)N1C[C@H](C)[C@H](CN(C)C(=O)Cc2ccccc2)OCCCC[C@H](C)Oc2ccc(N(C)C)cc2C1=O	i	i	i	i
21	Cc1ccc(S(=O)(=O)N(C)C[C@H]2Oc3ccc(NS(C)(=O)=O)cc3C(=O)N([C@@H](C)CO)C[C@@H]2C)cc1	i	i	i	i
22	C[C@H]1CN([C@@H](C)CO)C(=O)CCCn2cc(nn2)CO[C@H]1CN(C)S(=O)(=O)c1ccccc1	i	i	i	i
23	Cc1noc(C)c1NC(=O)N(C)C[C@H]1Oc2ccc(NC(=O)Nc3cccc4ccccc34)cc2C(=O)N([C@H](C)CO)C[C@@H]1C	i	i	i	i
24	Cc1noc(C)c1S(=O)(=O)N(C)C[C@H]1Oc2ccc(NC(=O)C3CCCCC3)cc2CC(=O)N([C@@H](C)CO)C[C@H]1C	i	i	i	i
25	COc1ccc(NC(=O)Nc2cccc3c2O[C@H](CN(C)S(=O)(=O)c2ccc(OC)cc2)[C@H](C)CN([C@H](C)CO)C3=O)cc1	i	i	i	i
26	C[C@@H]1CCCCO[C@@H](CN(C)S(=O)(=O)c2cccs2)[C@H](C)CN([C@H](C)CO)C(=O)c2cc(NS(C)(=O)=O)ccc2O1	i	i	i	i
27	COc1ccc(S(=O)(=O)Nc2ccc3c(c2)C(=O)N([C@H](C)CO)C[C@H](C)[C@@H](CN(C)CC2CC2)O3)cc1	i	i	i	i
28	C[C@@H]1CCCCO[C@@H](CN(C)C(=O)Nc2ccccc2)[C@@H](C)CN([C@@H](C)CO)C(=O)c2cc(N(C)C)ccc2O1	i	i	i	i
29	C[C@@H]1CN([C@@H](C)CO)C(=O)Cc2cc(NC(=O)Nc3ccc4c(c3)OCO4)ccc2O[C@H]1CN(C)CC1CC1	i	i	i	i
30	C[C@@H]1CN([C@@H](C)CO)C(=O)Cc2cc(NC(=O)CCC(F)(F)F)ccc2O[C@@H]1CN(C)C(=O)Nc1ccccc1	i	i	i	i
31	NC(=O)CSc1nnnn1-c1cccc(O)c1	i	i	i	i
32	C[C@@H]1CN([C@H](C)CO)C(=O)c2cccc(NS(=O)(=O)c3cn(C)cn3)c2O[C@H]1CN(C)Cc1ccc(Cl)c(Cl)c1	i	i	i	i
33	C[C@H](CO)N1C[C@H](C)[C@H](CN(C)Cc2ccc(C(=O)O)cc2)Oc2c(NC(=O)Nc3cccc4ccccc34)cccc2C1=O	i	i	i	i
34	C[C@@H]1CN([C@@H](C)CO)C(=O)CCCn2cc(nn2)CO[C@H]1CN(C)C(=O)Nc1ccc(-c2cccs2)cc1	i	i	i	i
35	COc1ccc(NC(=O)c2cccc(NC(=O)C3C4CC5OC(=O)C3C5C4)c2)c(OC)c1 (stereo not drawn)	i	i	i	i
36	C[C@@H]1CN([C@H](C)CO)C(=O)Cc2cc(NC(=O)Nc3ccc(F)cc3)ccc2O[C@H]1CN(C)C(=O)NC1CCCCC1	i	i	i	i
37	COc1ccc(S(=O)(=O)N(C)C[C@H]2Oc3ccc(NC(=O)CCC(F)(F)F)cc3C(=O)N([C@H](C)CO)C[C@H]2C)cc1	i	i	i	i
38	COc1ccc(S(=O)(=O)Nc2ccc3c(c2)C(=O)N([C@@H](C)CO)C[C@@H](C)[C@H](CN(C)Cc2ccncc2)O3)cc1	i	i	i	i
39	COc1ccc(S(=O)(=O)Nc2ccc3c(c2)C(=O)N([C@H](C)CO)C[C@@H](C)[C@H](CN(C)C(=O)CCC(F)(F)F)OCCCC[C@@H](C)O3)cc1	i	i	i	.
40	C[C@@H]1CN([C@@H](C)CO)C(=O)c2cc(NC(=O)Nc3ccc4c(c3)OCO4)ccc2O[C@H]1CN(C)C	i	i	i	i
41	COc1ccccc1CN(C)C[C@@H]1OCc2cn(nn2)CCCC(=O)N([C@@H](C)CO)C[C@H]1C	i	i	i	i
42	C[C@H](CO)N1C[C@H](C)[C@@H](CN(C)S(=O)(=O)c2ccccc2)Oc2ccc(NC(=O)NC3CCCCC3)cc2C1=O	i	i	i	i
43	O=C(C1=C[C@H](C2CC2)C[C@H](OCc2ccc(CO)cc2)O1)N1CCOCC1	i	i	i	i
44	C[C@@H]1CN([C@H](C)CO)C(=O)CCCn2nncc2CO[C@H]1CN(C)Cc1ccc2c(c1)OCCN2C	i	i	i	i
45	CNC[C@@H]1Oc2ccc(NC(=O)NC(C)C)cc2CC(=O)N([C@@H](C)CO)C[C@@H]1C	i	i	i	i
46	Cc1noc(C)c1S(=O)(=O)N(C)C[C@@H]1OCc2cnnn2CCCC(=O)N([C@H](C)CO)C[C@@H]1C	i	i	i	i
47	COc1ccc(OCC(=O)Nc2ccccc2-c2nc3ccccc3s2)cc1	i	i	i	i
48	CC(C)NC(=O)N(C)C[C@H]1Oc2ccc(NS(=O)(=O)c3ccccc3)cc2CC(=O)N([C@@H](C)CO)C[C@H]1C	i	i	i	i
49	C[C@H](CO)N1C[C@H](C)[C@H](CN(C)C(=O)NC2CCCCC2)Oc2ccc(NC(=O)Cn3cnnn3)cc2C1=O	i	i	i	i
50	Nc1c(O)cccc1C(=O)O	i	i	i	i

By substructure: the compounds so far with a nitro group on carbon
item	canonical_smiles	Myc binder	STAT3 SMM	mut p53 SMM	ID4 binder
2	Cn1nc(-c2ccc(NCCN3CCOCC3)c([N+](=O)[O-])c2)c2ccccc2c1=O	i	i	i	i
8	COC(=O)c1c(C)n(CCNc2ccc([N+](=O)[O-])cc2)c2ccc(O)cc12	i	i	i	i

Later entries.
item	canonical_smiles	Myc binder	STAT3 SMM	mut p53 SMM	ID4 binder
51	C[C@H](CO)N1C[C@H](C)[C@@H](CN(C)S(=O)(=O)c2cn(C)cn2)Oc2ccc(NC(=O)Nc3ccc4c(c3)OCO4)cc2C1=O	i	i	i	i
52	Cc1noc(C)c1NC(=O)N(C)C[C@@H]1Oc2ccc(NC(=O)Nc3ccc(F)cc3)cc2C(=O)N([C@@H](C)CO)C[C@@H]1C	i	i	i	i
53	O=C1O[C@@H](c2ccccc2)[C@@H](c2ccccc2)N2[C@@H](c3ccc(OCCO)cc3)[C@]3(C(=O)Nc4ccc(C#CC5=CCCCC5)cc43)[C@@H](C(=O)N3CCCCCCC3)[C@H]12	i	+	+	i
54	CC(C)NC(=O)N(C)C[C@H]1Oc2ccc(NC(=O)CCC(F)(F)F)cc2CC(=O)N([C@H](C)CO)C[C@H]1C	i	i	i	i
55	C[C@@H]1CN([C@@H](C)CO)C(=O)Cc2cc(NS(=O)(=O)c3ccc(Cl)cc3)ccc2O[C@@H]1CN(C)S(=O)(=O)c1ccccc1	i	i	i	.
56	COc1ccc([Si](C)(C)[C@H]2[C@H](CCO)O[C@@]3(C(=O)N(Cc4ccc(N5CCCCC5=O)cc4)c4ccccc43)[C@@H]2C)cc1	i	i	i	i
57	O=C(NCc1ccccc1)c1ccc(Br)cc1[N+](=O)[O-]	i	i	i	.
58	C[C@H]1CCC[C@@H](O)CC(=O)c2c(O)cc(O)cc2CC(=O)O1	i	i	i	.
59	C[C@H]1CN([C@@H](C)CO)C(=O)c2cc(NC(=O)CCCN(C)C)ccc2O[C@H]1CN(C)Cc1ccc2c(c1)OCO2	i	i	i	i
60	CC1(C)CC[C@]2(C(=O)O[C@@H]3O[C@H](CO)[C@@H](O)[C@H](O)[C@H]3O)CC[C@]3(C)C(=CCC4[C@@]5(C)C[C@@H](O)[C@H](O)C(C)(C)C5CC[C@]43C)C2[C@@H]1O (stereo partly drawn)	i	i	i	i
61	CCCCC[C@H](O)/C=C/C1=C(C/C=C\CCCC(=O)O)C(=O)CC1	i	i	i	i
62	C[C@H](CO)N1C[C@H](C)[C@@H](CN(C)S(=O)(=O)c2ccccc2)Oc2c(NC(=O)Nc3ccc4c(c3)OCO4)cccc2C1=O	i	i	i	i
63	C[C@@H]1CN([C@H](C)CO)C(=O)c2cc(NS(C)(=O)=O)ccc2O[C@H]1CN(C)Cc1ccc(Cl)c(Cl)c1	i	i	i	.
64	C[C@@H]1CCCCO[C@H](CN(C)C(=O)CCC(F)(F)F)[C@H](C)CN([C@@H](C)CO)C(=O)c2cc(NS(C)(=O)=O)ccc2O1	i	i	i	i
65	C[C@H]1CN([C@@H](C)CO)C(=O)CCCn2nncc2CO[C@@H]1CN(C)C(=O)Nc1ccccc1F	i	i	i	i
66	C[C@@H]1CCCCO[C@H](CN(C)C(=O)C2CCCCC2)[C@@H](C)CN([C@H](C)CO)C(=O)c2cc(NS(=O)(=O)c3cccs3)ccc2O1	i	i	i	i
67	Clc1cccc(Cl)c1Cn1cnc2c(Oc3cccnc3)ncnc21	i	i	i	i
68	CC(C)NC(=O)N(C)C[C@H]1OCCCC[C@@H](C)Oc2ccc(N(C)C)cc2C(=O)N([C@H](C)CO)C[C@@H]1C	i	i	i	i
69	C[C@@H]1CN([C@H](C)CO)C(=O)c2cccc(NC(=O)NC3CCCCC3)c2O[C@@H]1CN(C)C(=O)Nc1ccccc1	i	i	i	i
70	Cc1noc(C)c1NC(=O)N(C)C[C@@H]1Oc2ccc(NC(=O)C3CC3)cc2C(=O)N([C@@H](C)CO)C[C@H]1C	i	i	i	i
71	Cc1noc(C)c1NC(=O)N(C)C[C@@H]1Oc2c(NC(=O)c3nc4ccccc4s3)cccc2C(=O)N([C@@H](C)CO)C[C@H]1C	i	i	i	i
72	O=S(=O)(c1cccc2cnccc12)N1CCNCC1	i	i	i	i
73	CC(C)NC(=O)Nc1ccc2c(c1)C(=O)N([C@H](C)CO)C[C@@H](C)[C@H](CN(C)C(=O)Cc1ccccc1)OCCCC[C@@H](C)O2	i	i	i	i
74	CCc1ccc(NC(=O)CSc2nc3ccccc3[nH]2)cc1	i	i	i	i

Filtered by structure: the entries above containing an aryl thioether with sulfur outside any ring (3)
item	canonical_smiles	Myc binder	STAT3 SMM	mut p53 SMM	ID4 binder
12	CC(=O)Nc1cccc(-c2nnc(SCC(=O)Nc3cccc(Cl)c3)n2C)c1	i	i	i	i
31	NC(=O)CSc1nnnn1-c1cccc(O)c1	i	i	i	i
74	CCc1ccc(NC(=O)CSc2nc3ccccc3[nH]2)cc1	i	i	i	i

Source: PubChem BioAssay
